Screens: PubChem BioAssay, ICCB-Longwood Screening Facility, Harvard Medical School
Vaccinia pol inh – vaccinia E9 polymerase processive synthesis inhibition; in vitro processive DNA synthesis, absorbance read-out; active compounds read low; some inactives read as strong as hits; normalized absorbance, % (no concentration beside the values); 46,000 tested, 0.94% active; AID 493162;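 active = replicate mean up to 90% and picked by the depositor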;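 note: 100% = median of the test wells of a plate; 100 nL library stock went into each well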
Numbers without * were called inactive.

SMILES	Vaccinia pol inh
OCCC12CC3CC(CC(C3)C1)C2	100
COc1ccc2c(OC)ccc3c2c1C=CC3=O	56*
COC(=O)c1sccc1Oc1ccc(C(F)(F)F)cc1NC(=O)Nc1ccc(Cl)cc1	106
COC(=O)c1cccc(N2C(=O)c3ccc(C(=O)OC)cc3C2=O)c1	100
CN1/C(=C/c2cccc[n+]2C)C=Cc2ccccc21	97
CC(C)(C)c1csc(NC(=O)c2ccc3c(c2)OCCO3)n1	91
CCOC(=O)C1CCCN(C(=O)c2ccc(CS(=O)c3ccccc3)o2)C1 (stereo unspecified)	100
COC(=O)c1ccc([C@@H]2Nc3c(C)cccc3[C@@H]3C=CC[C@@H]32)cc1	100
c1ccc(CCn2c3ccccc3c3nc4ccccc4nc32)cc1	96
Cc1ccc(SC2=C(N3CCOCC3)C(=O)N(c3cc(C)cc(C)c3)C2=O)cc1	101
Cc1cccc(-c2noc(COc3ccccc3)n2)c1	100
O=C(CSc1nc2ccccc2c(=O)n1-c1ccc(Cl)c(Cl)c1)N1CCOCC1	107
COc1ccc(N2CCN(C(=O)CCC(=O)c3ccccc3)CC2)cc1	88
O=C1c2ccccc2-c2nn(CC(=O)N3CCOCC3)c3cccc1c23	93
O=C(c1cnc2n(c1=O)CCS2)N(c1ccccc1)C1CCCCC1	95
Cc1ccc(Cl)cc1NC(=O)CC(C(=O)O)N(C)C (stereo unspecified)	97
C=CCOc1ccc2c(=O)c(Oc3cccc(C)c3)coc2c1	100
Cc1[nH]c2ccccc2c1Sc1ccccc1	95
CC1(C)CC(=O)c2sc(NS(C)(=O)=O)nc2C1	100
CC1(C)CC(=O)C2=C(C1)Nc1[nH]n(-c3ccccc3)c(=O)c1C2c1ccco1 (stereo unspecified)	95
Cc1ccc(S(=O)(=O)C=C(c2ccccc2)c2ccccc2)cc1	100
Cc1cc(C(=O)O)c2cc(O)ccc2n1	99
COC(=O)c1c(C)oc2ccc(NS(=O)(=O)c3ccc(C)cc3)cc12	100
COc1ccc(CC(=O)N2CCN(c3ncccn3)CC2)cc1OC	100
O=C(Nc1ncc(-c2ccccc2)s1)c1cccc(N2C(=O)CCC2=O)c1	100
O=C(O)c1ccc(CNC2CCS(=O)(=O)C2)cc1 (stereo unspecified)	100
Cc1cc(C)cc(OCCn2c(-c3ccc(Cl)cc3)nc3ccccc3c2=O)c1	100
Cc1ccc(-c2nc(C#N)c(NCCCn3ccnc3)o2)cc1	100
COC(=O)c1noc(C)c1-c1ccnn1C(=O)c1cc(C(F)(F)F)cc(C(F)(F)F)c1	97
CCc1oc2ccccc2c1C(=O)CCN1CCCCC1	99
NCCCC(=O)O	100
O=C(Cn1nnc2ccccc21)N1CCN(c2ccccc2)CC1	102
CN(C(=O)COc1cc(C(F)(F)F)n(C)n1)c1ccccc1	79
CCC(Sc1n[nH]c(=O)[nH]c1=O)C(=O)O (stereo unspecified)	100
C=CCn1c(-c2cccs2)nc(-c2ccccc2)c1-c1ccccc1	106
CCOC(=O)N1CCN(c2ccc(O)cc2)CC1	96
CC1=CCC(C(=O)O)C(C(=O)Nc2ccc(-c3nc4ccc(C)cc4s3)cc2)C1 (stereo unspecified)	96
COC(=O)C1=C(C)NC(=O)NC1/C=C/c1ccccc1 (stereo unspecified)	105
Cc1cc2ncn(Cc3ccccc3F)c2cc1C	101
Cc1ccc(/C=C2/SC(=S)N(CCC(=O)N3CCOCC3)C2=O)cc1	97
Cc1cc(=O)nc2c3ccccc3n(C(C)C(=O)Nc3c(F)c(F)cc(F)c3F)n12 (stereo unspecified)	100
NC(N)=NCCCCN=C(N)N	99
COC(C)C(O)(C(=O)OC1=CCN2CC[C@H](O)[C@@H]12)C(C)C (stereo partly specified)	101
O=S(=O)(NCCc1nnc2ccc(SCc3ccccc3)nn12)c1ccccc1	100
CC(C)C(=O)N(c1ccc2oc(=O)sc2c1)S(=O)(=O)c1ccccc1	86
CC12C=CC(O1)C1C(=O)N(c3ccccc3Cl)C(=O)C12 (stereo unspecified)	81
COC(=O)c1ccc(Cn2nc(C)c(Cl)c2C)cc1	92
O=C(Nc1nc(-c2ccc(Cl)c(Cl)c2)cs1)C1CC1	101
Cc1cc(C(=O)O)ccc1N/C=C1\CCCC(C)C1=O (stereo unspecified)	99
CCN1C2=C(C(=O)CCC2)C(c2cccc(O)c2)C2=C1CCCC2=O	100
Cc1ccc(S(=O)(=O)NCCSc2nncn2C)cc1	101
Cc1ccccc1-c1nc2cc(NC(=O)C3CC3)ccc2o1	93
O=C(OCc1ccc(Br)cc1)c1cccnc1	102
C/C(O)=C(/C#N)c1nnc2n1CCCCC2	100
O=C(Nc1ccc(C(=O)NC2CCCCC2)cc1)c1cncc(Br)c1	101
O=C1NN(C(=O)Nc2ccc(Br)cc2)[C@@H](c2ccccc2)[C@@H]1c1ccccc1	90
Cc1ccc(NS(=O)(=O)CC23CCC(CC2=O)C3(C)C)cc1 (stereo unspecified)	100
COc1ccc(C2C(=O)c3ccccc3C2=O)cc1	97
Cc1nn(-c2ccccc2)c2sc(C(=O)NN3CCOCC3)cc12	91
CN(Cc1ccccc1)c1nnc(NC(=O)c2cc(-c3ccc(Br)cc3)on2)s1	85

Structural class, those above containing a cyano group.
SMILES	Vaccinia pol inh
Cc1ccc(-c2nc(C#N)c(NCCCn3ccnc3)o2)cc1	100
C/C(O)=C(/C#N)c1nnc2n1CCCCC2	100

Going on with the list.
SMILES	Vaccinia pol inh
O=C(Cc1ccccc1)Sc1nc2ccccc2[nH]1	100
O=C(c1cc(C2CC2)[nH]n1)n1ccnc1	95
COc1ccccc1S(=O)(=O)Cc1ccc(C(=O)NC2CCCCCC2)o1	100
CC[N+](C)(CC)Cc1ccccc1	100
O=C(CSc1nc2ccccc2c(=O)n1-c1ccccc1)N1CCN(CCO)CC1	100
CC(C)=C(C#N)c1nc2ccccc2n1C	104
CCn1c(C(=O)OC)cc2sc(Cl)cc21	103
Cc1nc(C)c(S(=O)(=O)NCc2ccc(N3CCN(C)CC3)cc2)s1	99
COc1cccc(OC)c1C(=O)N=c1sc2cc(S(C)(=O)=O)ccc2n1C	100
Cc1oc2ccc(OC(=O)C(C)C)cc2c1C(=O)OC(C)C	101
CCN1C/C(=C\c2ccc3c(c2)OCO3)C(=O)/C(=C/c2ccc3c(c2)OCO3)C1	90
CCC1CCCCN1C(=O)COC(=O)c1cnc(Cl)c(Cl)c1 (stereo unspecified)	90
CC1(C)CC2CC(C)(CN2C(=O)C2CCN(S(=O)(=O)c3cccs3)CC2)C1 (stereo unspecified)	99
Cc1[nH]nc2nc3c(c(OC(=O)c4ccccc4)c12)c(=O)n(C)c(=O)n3C	99
c1cncc(CNCc2ccco2)c1	119
CN(C(=O)COc1cc(C(F)(F)F)nn1C)c1ccccc1	112
CCOC(=O)c1ccccc1NCn1c(=S)oc2ccccc21	100
COc1ccc(CNC(=O)c2cn(CC(C)C)c(=O)c3cc(OC)c(OC)cc23)cc1	98
Cc1ccc(/C=N/N(C)C2=NCCN2)o1	99
C[n+]1ccsc1-c1ccccc1	98
CC(C)=CCC(C)(C)C1OCCN1C(=O)c1ccccc1 (stereo unspecified)	99
CCC1CCC(C(=O)O)CC1 (stereo unspecified)	93
CCOc1cccc(C2c3c(oc4cc(C)c(C)cc4c3=O)C(=O)N2CCCN(C)C)c1 (stereo unspecified)	102
Cc1ccc(-c2n[nH]c3c2CCC3)cc1	95
CN(C)CCCN=C(NO)c1c(Cl)cccc1Cl	113
CCN(CC)c1nc2c(C)cccn2c(=O)c1C=C1C(=O)NC(=O)NC1=O	100
NC(=O)CSc1ncc(-c2ccccc2)[nH]1	98
COc1ccc(-c2nnc3sc(NC(=O)C(C)C)nn23)cc1	102
O=C(COC(=O)Cc1cccs1)Nc1ccc(F)c(F)c1F	92
CN(Cc1ccccc1)C(=O)c1nc(-c2cccnc2)no1	100
Cc1ccc(CSc2nc3ccccc3c(=O)n2Cc2ccccc2)cc1	102
CC(=O)Nc1sc(C)c(C)c1C(=O)O	99
CC(C)CNC(=O)c1ccc(Br)o1	99
CCCCCCCCCCCCCCCC(=O)OC/C=C(C)/C=C/C=C(C)/C=C/C1=C(C)CCCC1(C)C	102
O=C(Nc1ccccc1)OCc1cc(-c2ccc(Cl)cc2)oc1C(F)(F)F	100
CCCN1CCN(C(=O)Cn2cnc3sc(C)c(S(=O)(=O)N4CCC(C)CC4)c3c2=O)CC1	100
CCOC(=O)c1sc2nc3c(cc2c1N)C(=O)CCC3	95
CN(C)c1ccc(C(CN)c2c[nH]c3ccccc23)cc1 (stereo unspecified)	102
Cc1nc2ccccc2cc1C(=O)Nc1cccc(F)c1	93
CCCC/C(O)=C/c1nc2ccccc2[nH]c1=O	100
c1ccc(NCC2COc3ccccc3O2)nc1 (stereo unspecified)	107
Cc1cccc(N(C)C(=S)Oc2ccc3ccccc3c2)c1	97
Cc1cc(Br)ccc1NC(=O)c1cc2c(s1)-c1ccccc1OC2	104
CC(=O)Nc1ccc(NC(=O)c2ccnn2C)cc1	101
CC1(C)CC(NC(=O)c2ccco2)CC(C)(C)N1	92
O=C(NCc1ccccc1)C1Sc2nnc(-c3ccccc3)n2NC1c1ccc(F)cc1 (stereo unspecified)	99
COc1cc(/C=N/n2c(C)nc3c(ncn3-c3ccccc3)c2=O)cc(OC)c1OC	108
CSc1ccc(N=CN2C(=O)c3ccccc3C2=O)cc1	100
NC(=O)c1cc2ccccc2o/c1=N\O	94
c1ccc(C2Oc3ccccc3C3CC(c4ccco4)=NN32)cc1 (stereo unspecified)	104
Cc1cc(-c2c(O)c3ccccc3n(C)c2=O)no1	101
O=c1c2ccccc2nc2n1CCN2Cc1ccccc1	108
Cc1cc2ccccc2n1CCNC(=O)C1CCCC1	101
Cc1cccc(C)c1OC(=O)CN1C(=O)c2ccccc2C1=O	101
CCOC(=O)C12C(=O)OC(C)(C)C1C2(C)C(=O)c1ccc(Br)cc1 (stereo unspecified)	101
O=C1CC2(CCCC2)C(=O)N1CCc1cccs1	109
CC1(C)CC(=O)C2=C(C1)Nc1ccccc1N(C(=S)Nc1cccc(Cl)c1)C2c1ccco1 (stereo unspecified)	99
C=C(C)CSCc1nc2ccccc2[nH]1	101
CC1(C)CC(=O)c2cc(-c3ccccc3)n(-c3ccc(S(N)(=O)=O)cc3)c2C1	100
CC1CN(C(=O)c2cccc3c2-c2ccccc2C3=O)CC(C)O1 (stereo unspecified)	86
(cont.)
SMILES	Vaccinia pol inh
Fc1cnc(Nc2ccccc2)nc1N1CCOCC1	99
c1ccc(CC2CCN(Cc3nnc(-c4ccccc4)o3)CC2)cc1	97
Cn1c(=NC(=O)c2ccc(N3C(=O)CCC3=O)cc2)sc2ccccc21	89
COC(=O)CNC(=O)c1cc2c(=O)oc3ccccc3c2s1	96
CN(C)CCN1C(=O)C(=O)/C(=C(/O)c2ccc(Cl)cc2)C1c1cccs1 (stereo unspecified)	98
CCN1C(=O)/C(=C\c2ccc(NC(=O)C(F)(F)F)cc2)SC1=S	102
CCC(=O)NCCCc1nc2ccccc2n1C(C)C	101
CC(=C1C(=O)c2ccccc2C1=O)N1CCC(Cc2ccccc2)CC1	100
O=C(Cn1sc2ccccc2c1=O)N1CCN(C(=O)c2ccco2)CC1	98
O=C(CN1C(=O)/C(=C/c2ccccc2)SC1=S)NC1CCCC1	101
N#Cc1cn[nH]c1C(F)(F)F	100
O=C(Cc1ccccc1)Nc1nnc(SCC(=O)N2CCCc3ccccc32)s1	102
Nc1[nH]nc2nc(N3CCCC3)nc(-c3ccccc3)c12	101
CCOP(=S)(OCC)C1(Nc2ccc(C)cc2)CCCCC1	107
CCOC(=O)N1CCC(n2c(SCC(=O)Nc3ccc(C)cc3)nc3ccccc3c2=O)CC1	102

A second format for 20 compounds above:
Structure,Vaccinia pol inh
O=C1CC2(CCCC2)C(=O)N1CCc1cccs1,109
CC1(C)CC(=O)C2=C(C1)Nc1ccccc1N(C(=S)Nc1cccc(Cl)c1)C2c1ccco1 (stereo unspecified),99
C=C(C)CSCc1nc2ccccc2[nH]1,101
CC1(C)CC(=O)c2cc(-c3ccccc3)n(-c3ccc(S(N)(=O)=O)cc3)c2C1,100
CC1CN(C(=O)c2cccc3c2-c2ccccc2C3=O)CC(C)O1 (stereo unspecified),86
Fc1cnc(Nc2ccccc2)nc1N1CCOCC1,99
c1ccc(CC2CCN(Cc3nnc(-c4ccccc4)o3)CC2)cc1,97
Cn1c(=NC(=O)c2ccc(N3C(=O)CCC3=O)cc2)sc2ccccc21,89
COC(=O)CNC(=O)c1cc2c(=O)oc3ccccc3c2s1,96
CN(C)CCN1C(=O)C(=O)/C(=C(/O)c2ccc(Cl)cc2)C1c1cccs1 (stereo unspecified),98
CCN1C(=O)/C(=C\c2ccc(NC(=O)C(F)(F)F)cc2)SC1=S,102
CCC(=O)NCCCc1nc2ccccc2n1C(C)C,101
CC(=C1C(=O)c2ccccc2C1=O)N1CCC(Cc2ccccc2)CC1,100
O=C(Cn1sc2ccccc2c1=O)N1CCN(C(=O)c2ccco2)CC1,98
O=C(CN1C(=O)/C(=C/c2ccccc2)SC1=S)NC1CCCC1,101
N#Cc1cn[nH]c1C(F)(F)F,100
O=C(Cc1ccccc1)Nc1nnc(SCC(=O)N2CCCc3ccccc32)s1,102
Nc1[nH]nc2nc(N3CCCC3)nc(-c3ccccc3)c12,101
CCOP(=S)(OCC)C1(Nc2ccc(C)cc2)CCCCC1,107
CCOC(=O)N1CCC(n2c(SCC(=O)Nc3ccc(C)cc3)nc3ccccc3c2=O)CC1,102

Continuation.
SMILES	Vaccinia pol inh
CC(Oc1ccc(Cl)cc1Cl)C(=O)NCCN1CCOCC1 (stereo unspecified)	103
CN(C)c1ccc(NC(=O)c2c3c(nc4ccccc24)CCCC3)cc1	103
CCOC(=O)/C=C(\C)Nc1cccc(N/C(C)=C/C(=O)OCC)c1C	107
CCCNC(=O)C12CC3CC(C1)CC(C(=O)NCCC)(C3)C2	102
O=C(NC1CCCCC1)Oc1cc2oc(=O)sc2cc1Cl	99
CN=C(C)/C(C(=O)OC)=C(/O)c1ccc(Cl)cc1Cl	100
COc1cc(CO)ccc1Oc1nnnn1-c1ccc(C(N)=O)cc1	92
CCOc1ccc(N=CC=C2OC(C)(C)C(C)(C)O2)cc1	100
COC(=O)C1=C(C)NC(=S)NC1c1cc2c(cc1Br)OCO2 (stereo unspecified)	100

A portion of the library, so the mix of outcomes need not match the whole.
